# Compound activity as filed in PubChem BioAssay.
# A1 inh: inhibitors of the anti-apoptotic protein A1, read as caspase activation | MEF A1-2A-BIM cells, Caspase-Glo 3/7 luminescence, 3 h; percent of clofoctol response, vehicle zero | caspase activation, % (test concentration not listed) | actives 0.066% (n = 330,000) | AID 2462;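 active = over half of replicate activation scores above 10%, or exactly half above 10 with the replicate mean above 10; inconclusive = replicate mean below 10 yet half the replicates above 10; inactive = over half of replicates below 10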;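 also: wells of about 30 µL received 50 nL stock; many hits fall short of the cut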
# ALR H2O2 inh: blocks human ALR sulfhydryl oxidase activity | P55789 | purified ALR, DTT oxidation, H2O2 HRP-luminol luminescence | inhibition, % (test concentration not listed) | actives 3.8% (n = 290,000);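 active = mean and each replicate at 75% or more; inconclusive = only one of the two met; inactive = neither met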;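 also: stock transfer was 7.5 nL into about 7.5 µL; 0% = neutral wells and 100% = wells with inactivated enzyme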
# Target sequence (P55789 whole entry, looked up): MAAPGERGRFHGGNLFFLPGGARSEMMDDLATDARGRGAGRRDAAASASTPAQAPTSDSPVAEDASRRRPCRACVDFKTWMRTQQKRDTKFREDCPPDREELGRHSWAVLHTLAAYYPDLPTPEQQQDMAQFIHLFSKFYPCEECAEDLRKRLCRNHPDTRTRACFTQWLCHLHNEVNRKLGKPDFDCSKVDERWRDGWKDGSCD
# Beta2AR agonist: agonists of human beta-2 adrenergic receptor inducing internalization. P07550. response, % (no concentration beside the values). AID 504454. Am2.2-beta2AR cells, FAP receptor internalization, flow cytometry; reference of the scale not given here. actives 0.43% (n = 340,000);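 active = response above a set limit, near 3 SD of response in nonfluorescent compounds, cut at about 42% in these data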;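 also: stock transfer was 100 nL into about 11 µL; a reference agonist was the positive control; negative values mostly stem from fluorescent compounds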
# Target sequence (P07550 whole entry, looked up): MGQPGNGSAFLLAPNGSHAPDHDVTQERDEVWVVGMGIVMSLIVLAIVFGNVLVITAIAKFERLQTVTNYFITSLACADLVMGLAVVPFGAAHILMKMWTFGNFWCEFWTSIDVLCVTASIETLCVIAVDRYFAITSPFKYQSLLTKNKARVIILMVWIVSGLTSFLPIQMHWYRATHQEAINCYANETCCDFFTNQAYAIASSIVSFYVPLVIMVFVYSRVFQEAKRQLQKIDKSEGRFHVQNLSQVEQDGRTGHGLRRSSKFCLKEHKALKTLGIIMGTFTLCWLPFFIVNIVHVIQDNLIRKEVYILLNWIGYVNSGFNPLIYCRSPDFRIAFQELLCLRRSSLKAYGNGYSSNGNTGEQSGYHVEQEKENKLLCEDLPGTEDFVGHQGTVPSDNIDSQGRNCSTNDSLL
# Ecoli rRNA inh: inhibitors of bacterial rRNA selective over humanized ribosomes. AID 720706. E. coli WT GFP vs humanized-ribosome RFP mutants, fluorescence, 24 h; stronger effect = lower value; DMSO median 0, no signal -100. GFP signal change (wild-type ribosome), % (no concentration beside the values). actives 1.6% (n = 350,000);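 active = significant combined selectivity score with lowered wild-type GFP, culture density cut under 30%, mutant RFP and density less affected; inactive = any of these conditions unmet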; also: one replicate is shown; some compounds called inactive have numbers as strong as hits
# Beta cell apopt: beta cell apoptosis inhibition | INS-1E cytokine-induced death, ATP luminescence, 48 h; percent of positive-control rescue, neutral wells zero | protection from apoptosis, % (concentration not given with the values) | actives 0.8% (n = 300,000);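 active = all replicates at 75% or more, or half of them and the mean; inconclusive = half reach 75% but not the mean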;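 also: 0% = cytokine-treated negative control wells and 100% = positive control rescue; higher means more ATP so stronger rescue from cytokine killing; wells of about 40 µL received 100 nL stock; the first replicate is given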
# LANA-H2A inh: blocks KSHV LANA binding to histone H2A/H2B | actives 0.6% (n = 320,000) | Q9QR71 | cell-free LANA-H2A/H2B peptide, fluorescence polarization | inhibition, % (test concentration not listed); in the data active = inhibition mostly above about 10%, no sharp cut-off; inactive = mostly below about 6.7%;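 also: stock transfer was 7.5 nL into about 10 µL; 0% = median of vehicle wells and 100% = median of positive control wells; one replicate is shown; the record names a cut of 25% in any replicate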
# T cruzi inh: T. cruzi replication inhibition; T. cruzi beta-gal in NIH3T3, luminescence, 90 h; actives 1.4% (n = 300,000); inhibition, % (no concentration beside the values);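 active = mean inhibition across valid replicates above about 55%, limit read from the data; inconclusive = mean below that limit but half or more replicates reach it; inactive = mean below it, under half of replicates reach it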;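 also: signal also drops with host cell toxicity which is not excluded here; 0% = plate median of DMSO wells and 100% = zero luminescence signal; higher percent means less beta-gal luminescence so fewer parasites; stock transfer was 50 nL into about 50 µL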
# Calb FLC: affects C. albicans growth with fluconazole; growth inhibition, % (concentration not given with the values); actives 0.57% (n = 300,000); AID 1979; C. albicans CaCi-2 (fluconazole-resistant clinical isolate) + fluconazole, Alamar Blue growth, 48 h;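 active = most replicates above 75%; inconclusive = exactly half above 75%; inactive = most below 75%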;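 also: all wells also contain fluconazole at 8 µg/ml as a sub-toxic cotreatment; 0% = median of DMSO wells and 100% = median of geldanamycin control wells; wells of about 8 µL received 7.5 nL stock; the first replicate is given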
# Ecoli rRNA inh OD600: second read-out of Ecoli rRNA inh, no call of its own (marks repeat the call); OD600 change, %; measured here: OD600 growth;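 optical density of the mix in the first replicate; 0 = DMSO median and -100 = no signal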
# Ecoli rRNA inh RFP: second read-out of Ecoli rRNA inh, no call of its own (marks repeat the call); RFP signal change, %; measured here: RFP humanized mutant strains;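 first replicate; 0 = DMSO median and -100 = no signal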
# The depositor's hits bear a star; ? = inconclusive; / = no result given.
# The first 2 compounds as a preview:
SMILES,A1 inh,ALR H2O2 inh,Beta2AR agonist,Ecoli rRNA inh,Ecoli rRNA inh OD600,Ecoli rRNA inh RFP,Beta cell apopt,LANA-H2A inh,T cruzi inh,Calb FLC
O=C(/C=C/c1ccccc1)NC(=S)NNC(=O)c1cnccn1,0.7,/,-1,/,/,/,78*,7.0,50,67
O=c1c(-c2nnc(SCc3ccc(Cl)cc3Cl)o2)cccn1Cc1ccccc1,-0.5,/,16,-9,-10,6.2,2,-8.3,46,-9

# This part in full, previewed entries included:
SMILES,A1 inh,ALR H2O2 inh,Beta2AR agonist,Ecoli rRNA inh,Ecoli rRNA inh OD600,Ecoli rRNA inh RFP,Beta cell apopt,LANA-H2A inh,T cruzi inh,Calb FLC
O=C(/C=C/c1ccccc1)NC(=S)NNC(=O)c1cnccn1,0.7,/,-1,/,/,/,78*,7.0,50,67
O=c1c(-c2nnc(SCc3ccc(Cl)cc3Cl)o2)cccn1Cc1ccccc1,-0.5,/,16,-9,-10,6.2,2,-8.3,46,-9
COc1ccc(/C=C/c2nnc(NC(=O)c3ccco3)s2)cc1,-0.5,/,9,-10,-8,4.2,2,-5.4,8,64
O=C(C1CCCC1)N1CCC(CC2CC(c3ccc(Cl)cc3)=NO2)(C(=O)NCC2CCCCC2)CC1 (stereo not drawn),0.4,-16,-8,-10,-16,1.6,5,3.1,-6,15
COc1ccc(C2c3[nH]c4ccccc4c3CCN2Cc2ccoc2)c(F)c1 (stereo not drawn),-0.8,-17,7,-15,-59,4.4,-9,13,12,6
CCC(C)C(=O)Nn1c(C2CC2)nc2cc(OC)c(OC)cc2c1=O (stereo not drawn),0.6,-3,5,16,-1,1.9,-1,8.9,-12,10
CCC(=O)Nc1ccc(C(=O)Nc2ccc3c(c2)C(=O)N(CC2CCCO2)C3=O)cc1 (stereo not drawn),0.2,0,-4,/,/,/,0,1.7,6,-11
CC/C(=N\Nc1ccccc1[N+](=O)[O-])c1ccc(O)cc1,0.7,-30,0,-49,-75,-12,/,1.4,-8,10
CC1CCCN(C(=O)N2c3ccccc3Sc3ccccc32)C1 (stereo not drawn),1.1,63,6,/,/,/,-5,-2.5,31,32
O=C(c1cccnc1Cl)N(Cc1ccccc1)Cc1ccccc1,-0.4,-3,1,-31,-44,-16,-1,-2.7,12,?
Cc1cc2[nH]c3ccccc3c2c(C)n1,0.1,-1,10,-10,-7,-5.8,6,4.4,21,11
O=C(CCC(=O)N(CC(=O)NC1CCCCC1)c1ccc2c(c1)OCCO2)Nc1ccccn1,0.2,1,/,/,/,/,-3,0.8,-8,-15
O=C(NCCC(=O)N1CCc2ccccc21)c1ccco1,0.3,/,-19,10,4,1.2,-6,-2.3,0,3
Cc1ccc(C)c(NC(=O)CCC(=O)NNC(=O)c2cccc([N+](=O)[O-])c2)c1,0.2,1,3,/,/,/,-4,3.6,-11,-4
CC(C)CN(C(=O)COc1ccc2ccc(=O)oc2c1)C1CCS(=O)(=O)C1 (stereo not drawn),-0.4,2,-11,9,14,0.8,-4,4.8,-2,-5
COc1ccccc1S(=O)Cc1ccc(C(=O)NC2CCCC2)o1 (stereo not drawn),-0.4,94*,0,0,10,-2.7,/,-1.7,7,-12
COc1cc(NC(=O)Nc2cccc([N+](=O)[O-])c2)cc(OC)c1,-0.5,0,0,/,/,/,3,0.3,35,?
COc1ccc(N=C2CC(C)(C)CC(=O)/C2=C(/O)c2ccccc2)cc1,-1.3,-14,-2,-2,0,0.0,-4,5.0,-14,8
COc1cccc(-c2cc(C(F)(F)F)n3nc(N)nc3n2)c1,-0.4,95*,-3,/,/,/,7,7.3,-7,-1
O=C(c1ccco1)N1CCN(C(=O)C(c2ccccc2)c2ccccc2)CC1,0.2,-5,-8,/,/,/,-1,2.9,-3,-1
COc1cc(OC)cc(C(=O)Nc2nc(CC(=O)NCc3ccc(F)cc3)cs2)c1,0.6,-4,-11,-8,-11,3.1,12,6.7,-13,1
CCOC(=O)c1sc(NC(=O)/C=C/c2ccccc2)nc1C,0.7,1,0,-6,-2,0.6,-2,-0.8,-25,-6
O=C(CSc1ncccn1)N1CCc2ccccc2C1,-0.2,/,-3,13,6,2.1,-5,-0.1,-1,?
Cc1ccccc1CN1CCN(c2nc3ccccc3s2)CC1,0.8,-4,1,-1,-16,1.3,-3,0.1,6,5
COc1ccc(NC(=O)Cn2nnc3sc4c(c3c2=O)CC(C)(C)OC4)cc1,0.0,-14,5,-2,12,-2.5,-1,4.5,-2,12
Cn1ncc([N+](=O)[O-])c1C(=O)N/N=C/c1ccc(F)cc1,-0.9,-1,4,-2,-6,-6.5,-5,2.6,-9,1
Cc1ccccc1-c1nnn(CC(=O)c2ccc(S(=O)(=O)N3CCCC3)cc2)n1,-0.1,8,-1,/,/,/,1,-1.0,6,0
COc1cc(OC)cc(OC(=O)C2CCN(C(=O)c3ccc(F)cc3)CC2)c1,0.4,9,-5,8,0,-0.4,0,2.7,-12,-2
CCN(C[C@H]1N[C@@](Cc2ccccc2)(C(=O)OC)[C@H]2C(=O)N(C)C(=O)[C@@H]12)S(=O)(=O)c1ccccc1,-0.4,/,11,-3,0,-1.4,-16,3.8,/,/
N#C/C(=C\c1ccc(Cl)cc1)c1nc(-c2ccco2)cs1,-0.1,27,17,23,10,14,7,-4.7,-8,2
CCN(CC)S(=O)(=O)c1ccc(NC(=O)C2COc3ccccc3O2)cc1 (stereo not drawn),0.5,34,10,/,/,/,-6,12,5,2
O=C(O)C(Cc1ccccc1)N1C(=O)C2CCCCC2C1=O (stereo not drawn),0.5,-4,0,11,6,-1.1,0,-0.5,-14,23
Cc1ccc(S(=O)(=O)Nc2ccc(NC(=O)/C=C/C(=O)O)cc2)cc1,-3.1,40,-4,/,/,/,0,-3.3,-2,6
Cn1c(=O)c2c(nc(CN3CCN(C(=O)c4ccco4)CC3)n2Cc2ccc(Cl)cc2)n(C)c1=O,-0.6,-11,-16,/,/,/,0,0.3,-10,-4
Cc1ccc(C2C=C(c3ccccc3)Nc3ncnn32)cc1 (stereo not drawn),0.0,14,-8,-8,-2,-3.8,4,-2.5,0,11
Cc1nnc(N(C)C(=O)Cc2ccc3c(c2)OCO3)s1,0.6,-20,17,/,/,/,-11,5.3,3,-2
COc1cc(C)c(Cl)cc1S(=O)(=O)NC1CC(C)(C)NC(C)(C)C1,-1.6,-3,/,/,/,/,-6,-2.6,13,29
Cc1cccc(C)c1N(CC(=O)NCc1ccccc1)C(=O)c1csnn1,0.5,-4,10,/,/,/,-4,2.7,4,-1
O=C(NCc1ccc(Cl)cc1)c1ccc(N2CCCC2=O)cc1,-0.1,-2,8,8,10,-2.0,-3,-0.3,-12,-12
COc1ccc(C(=O)N[C@H](C(=O)OCc2nc3ccsc3c(=O)[nH]2)C(C)C)cc1,0.3,-16,-3,2,9,-2.9,0,2.0,3,/
O=C(CN1C(=O)NC2(CCCc3ccccc32)C1=O)c1ccc(F)c(F)c1 (stereo not drawn),0.3,-9,-5,-6,-25,-2.0,-4,1.2,/,/
CCN(CC)c1ccc(/C=N/NC(=O)c2cccc(S(=O)(=O)Nc3ccccc3OC)c2)c(O)c1,-0.5,3,27,3,22,-6.4,91*,-6.5,27,-6
CCSc1nsc(NC(=O)Nc2cccc(C(C)=O)c2)n1,-2.1,/,14,-34,-38,-5.6,5,-0.5,3,-4
NC(=O)C1CCN(c2ncccc2[N+](=O)[O-])CC1,-0.6,0,1,13,15,3.0,-3,1.2,4,-2
O=C(Cn1c(=S)[nH]c2ccccc2c1=O)N1CCc2ccccc2C1,-0.2,8,5,21,11,1.9,/,0.2,-5,-29
CN(C)c1nc(N)nc(CSc2ncc(Cl)cc2Cl)n1,0.6,54,-11,/,/,/,-2,-1.2,34,-19
COc1cc(CNCc2ccccc2)ccc1OCC(O)c1ccccc1 (stereo not drawn),1.5,2,-5,12,5,0.6,-4,-0.9,-4,-2
O=C(Nc1ccc(C(F)(F)F)cc1)C1CCN(S(=O)(=O)c2ccc(N3CCCC3=O)cc2)CC1,-0.4,8,0,14,4,0.7,101*,2.2,15,5
COCCNC(=O)C(c1cccs1)N(C(=O)Cn1nnc2ccccc21)c1ccccc1 (stereo not drawn),-0.6,-2,0,/,/,/,0,-0.5,-1,-3
Cc1ccc(-c2nc(CS(=O)(=O)CC(=O)NCCCN3CCOCC3)c(C)o2)cc1,0.5,-10,11,2,4,-0.8,-7,0.7,-7,-4

# Later entries.
SMILES,A1 inh,ALR H2O2 inh,Beta2AR agonist,Ecoli rRNA inh,Ecoli rRNA inh OD600,Ecoli rRNA inh RFP,Beta cell apopt,LANA-H2A inh,T cruzi inh,Calb FLC
CCOC(=O)[C@H]1[C@H]2COc3ccc(OC)cc3[C@@H]2N2C(=O)c3ccc(C)cc3NC(=O)[C@@]12C,-0.5,5,-6,-14,-20,2.0,1,-1.9,/,/
CC1(OC(=O)CCc2ccccc2)C(=O)C=C2C=C3CCCN3C=C2C1=O (stereo not drawn),0.6,/,-11,9,14,15,-4,-3.6,12,-2
c1ccc2nc(-c3nc4ccccc4o3)ccc2c1,-9.5,3,-28,/,/,/,29,3.6,-2,11
CC(C)c1ccc(C2CC(=O)c3cnc(N4CCc5ccccc5C4)nc3C2)cc1 (stereo not drawn),-0.3,-12,0,/,/,/,8,-1.7,18,6
CCN(CC)S(=O)(=O)c1ccc(C(=O)OCC(=O)N2CCOCC2)cc1,0.9,-5,4,-1,4,-1.0,-2,2.3,-6,2
CCN(CC)CCN1C(=O)C(=O)/C(=C(/O)c2ccc(S(=O)(=O)N3CCOCC3)cc2)C1c1ccc(C(C)(C)C)cc1 (stereo not drawn),0.8,3,0,/,/,/,-3,-1.5,9,5
COc1ccc(CC(=O)Nc2ccc(F)c(Cl)c2)cc1S(=O)(=O)N1CCOCC1,-0.3,-1,-9,-6,-12,6.2,1,1.6,/,/
COc1ccccc1CCNC(=O)CSc1nc(-c2ccco2)cc(C(F)(F)F)n1,-1.1,8,-26,18,10,8.1,/,-1.6,7,2
CCC1(NC(C)=O)CC2CC1CC2NC(C)=O (stereo not drawn),0.5,-7,-2,/,/,/,-1,-0.2,-1,-3
COC(=O)C1=C(C(C)=O)C(c2ccc(C)cc2)n2nnnc2N1 (stereo not drawn),-0.7,11,10,/,/,/,-2,2.5,-3,3
Nc1ccccc1-c1nc2ccccc2[nH]c1=O,0.5,-5,-11,4,0,-1.4,0,-3.6,-8,-9
c1ccc(-n2nnc3c(N4CCOCC4)ncnc32)cc1,-7.2,-1,-4,-8,0,-9.1,5,0.7,12,-1
CCc1ccc(OCC(=O)NC(=S)Nc2ccc(F)cc2)c(Br)c1,-0.2,-1,-3,/,/,/,-8,-1.1,2,8
O=C(COC(=O)c1ccc[nH]c1=O)NC1CCCC1,1.4,-8,1,/,/,/,-4,-1.7,-24,-7
Cc1nn(Cc2ccc(Br)cc2)c(C)c1NC(=O)c1nn(C)cc1Cl,0.1,3,-4,/,/,/,-2,7.2,-2,1
CC1CCN(CCCNc2cc(NCCO)c([N+](=O)[O-])c3nonc23)CC1,1.1,-21,6,19,20,-1.6,0,-6.8,4,-8

# Some of the compounds tested; the hit share may differ from the screen's.
